VCAM-1 up imaging: boosters of cytokine-driven VCAM-1 levels – imaging, high-content imaging, pooled HUVEC, TNFa stimulus (AID 457). 0.2% of 10,000 active. calls only. Pooled HUVEC, TNFa-induced VCAM-1 immunofluorescence imaging; hits of this screen are not shown here;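 active means a top-ranked rise in VCAM-1 staining upheld on image or statistical review; inactive means the rest, including candidates rejected on review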;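 further: compounds tested at 5 µM in the well; cells exposed to compound for 24 hours before fixing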
VCAM-1 imaging: inhibitors of TNFa-induced VCAM-1 surface display, imaging, high-content imaging, pooled HUVEC, TNFa stimulus (AID 456); HUVEC TNFa-induced VCAM-1 surface expression, immunofluorescence imaging; numbers were filed only for top-ranked candidate wells; inhibition, % at 5 µM, or IC50 in µM where a hit was titrated; 0.2% of 10,000 active;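 active means top tenth filtered wells with inhibition above zero that passed visual or statistical confirmation; inactive means the rest, including hits rejected on review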;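 further: 0% = stimulated vehicle wells and 100% = unstimulated cells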
FPRL1 binder: binds the human formylpeptide receptor-like-1 FPRL1; 0.3% of 24,000 active; P25090; inhibition, %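 (tested at 6.7 µM)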; FPRL1-expressing cells, fluorescent ligand binding inhibition, flow cytometry;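 further: 0% = buffer alone and 100% = receptor blocker peptide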
Target sequence (P25090 whole entry, looked up): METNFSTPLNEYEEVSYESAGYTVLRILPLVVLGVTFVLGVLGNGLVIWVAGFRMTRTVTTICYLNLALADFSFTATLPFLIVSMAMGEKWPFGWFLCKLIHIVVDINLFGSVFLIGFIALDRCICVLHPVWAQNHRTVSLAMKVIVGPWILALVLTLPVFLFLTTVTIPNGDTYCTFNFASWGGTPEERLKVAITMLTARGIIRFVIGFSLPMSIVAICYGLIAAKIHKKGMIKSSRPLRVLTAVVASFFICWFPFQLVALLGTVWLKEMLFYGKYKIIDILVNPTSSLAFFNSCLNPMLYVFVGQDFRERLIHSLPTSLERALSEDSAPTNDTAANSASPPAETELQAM
VCAM-1 inhibition: suppression of endothelial VCAM-1 upregulation – cell-based, plate reader, pooled HUVEC, TNFa stimulus (AID 454). HUVEC TNFa-induced VCAM-1 surface immunofluorescence, plate reader; numbers were filed only for top-ranked candidate wells. inhibition, % at 5 µM. 0.2% of 10,000 active;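 active means compound among top-ranked inhibitors of TNF-induced VCAM-1 adhesion protein staining, with the hit upheld by image or statistical review; inactive means the rest, including hits rejected on review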;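 further: 0% = TNFa with vehicle and 100% = cells without TNFa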
FPR ligand: ligands of human FPR, also counter-screen for FPRL1 ligands; P21462; FPR-expressing cells, fluorescent ligand binding, flow cytometry; inhibition, %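 (tested at 6.7 µM)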; 0.74% of 24,000 active; AID 440;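 further: 0% = buffer wells and 100% = receptor blocker peptide wells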
Target sequence (P21462 whole entry, looked up): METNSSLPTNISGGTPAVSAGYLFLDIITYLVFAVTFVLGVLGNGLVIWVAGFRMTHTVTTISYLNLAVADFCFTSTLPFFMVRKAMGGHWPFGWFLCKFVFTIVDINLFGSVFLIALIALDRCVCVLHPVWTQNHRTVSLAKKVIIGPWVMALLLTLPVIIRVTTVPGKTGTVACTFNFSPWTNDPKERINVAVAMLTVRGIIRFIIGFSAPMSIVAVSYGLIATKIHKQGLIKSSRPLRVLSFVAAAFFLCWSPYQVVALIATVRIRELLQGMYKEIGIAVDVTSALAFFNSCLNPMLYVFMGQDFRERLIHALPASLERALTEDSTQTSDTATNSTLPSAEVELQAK
Active calls of the source: *.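 How the source made its calls, unless noted: active means mean above 30%; inconclusive means self-fluorescent; inactive means the rest.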

For CCn1c(SCc2cc(=O)[nH]c3ccccc23)nc2c1c(=O)n(C)c(=O)n2C the results were VCAM-1 up imaging inactive, VCAM-1 imaging inactive, FPRL1 binder 5, VCAM-1 inhibition inactive and FPR ligand 6.
For COc1cccc(C2c3c(oc4cc(C)c(C)cc4c3=O)C(=O)N2CCCN(C)C)c1 (stereo unspecified) the results were FPRL1 binder 4 and FPR ligand -4.
Screening COc1cc(NC(=O)c2ccco2)c(OC)cc1NC(=O)CCC(=O)Nc1cc(C)cc(C)c1 returned VCAM-1 up imaging inactive, VCAM-1 imaging inactive, FPRL1 binder -8, VCAM-1 inhibition inactive and FPR ligand 7.
For O=C1CC(c2ccc3c(c2)OCO3)C2=C(CCCC2=O)N1 (stereo unspecified) the results were FPRL1 binder 8 and FPR ligand -7.
`O=C(NCc1ccco1)C1(S(=O)(=O)c2ccc(Cl)cc2)CC1` gave VCAM-1 up imaging inactive, VCAM-1 imaging inactive, FPRL1 binder 4, VCAM-1 inhibition inactive and FPR ligand 9.
For Cc1c[nH]c2cccc(OCC(O)CNC(C)(C)C)c12 (stereo unspecified) the results were VCAM-1 up imaging inactive, VCAM-1 imaging inactive, FPRL1 binder 11, VCAM-1 inhibition inactive and FPR ligand 4.
Screening Cc1ccc(S(=O)(=O)n2nc(OC(=O)C(C)(C)C)cc2N)cc1 returned FPRL1 binder -2 and FPR ligand -8.
CCCS(=O)(=O)N1CCC(C(=O)NCCc2ccc(C)cc2)CC1 was read as FPRL1 binder 7 and FPR ligand 9.
Screening CCn1cc(C(=O)NCCCN2CCC(C)CC2)c2cc(OC)c(OC)cc2c1=O returned FPRL1 binder -2 and FPR ligand -23.
For CCOc1ccccc1NC(=O)c1cnc2n(c1=O)CCS2 the results were FPRL1 binder 0 and FPR ligand 0.
`O=C(Cn1cc2c(n1)CCCC2)NC1CCN(Cc2ccccc2)CC1` gave FPRL1 binder -4 and FPR ligand -5.
Cc1ccc(Nc2cc(-n3nc(C)cc3C)ncn2)cc1 was read as VCAM-1 up imaging inactive, VCAM-1 imaging inactive, FPRL1 binder -14, VCAM-1 inhibition inactive and FPR ligand 0.
CC1CCN(S(=O)(=O)c2ccc(S(=O)(=O)NCC(=O)C(C)(C)C)cc2)CC1 was read as VCAM-1 up imaging inactive, VCAM-1 imaging inactive, FPRL1 binder 3, VCAM-1 inhibition inactive and FPR ligand -4.
For O=S(=O)(c1ccc2c(c1)nc1n2CCC1)N1CCOCC1 the results were VCAM-1 up imaging inactive, VCAM-1 imaging inactive, FPRL1 binder 5, VCAM-1 inhibition inactive and FPR ligand -2.
O=C(COC(=O)c1ccccc1Nc1ccc(SC(F)F)cc1)NCc1ccco1 was read as FPRL1 binder -5 and FPR ligand -10.
COc1ccc(OC)c(S(=O)(=O)Nc2ccc(C(N)=O)cc2)c1 was read as VCAM-1 up imaging inactive, VCAM-1 imaging inactive, FPRL1 binder 2, VCAM-1 inhibition inactive and FPR ligand -1.
For CCOc1ccc(C2C(C(=O)c3ccco3)=C(O)C(=O)N2CCCn2ccnc2)cc1 (stereo unspecified) the results were FPRL1 binder 1 and FPR ligand 70*.
For FC(F)(F)c1cc(-c2ccc3c(c2)OCO3)nc(NCc2ccco2)n1 the results were FPRL1 binder -2 and FPR ligand 14.
Cc1oc(-c2cccc(Cl)c2)nc1CN1CCC(C(=O)NCc2cccnc2)CC1 was read as FPRL1 binder -6 and FPR ligand -2.
For C=CCn1c(-c2ccc(OC)cc2)nc2ccccc21 the results were VCAM-1 up imaging inactive, VCAM-1 imaging inactive, FPRL1 binder -1, VCAM-1 inhibition inactive and FPR ligand -3.

Pulled one by one from the entries so far (five):
O=C(COC(=O)c1ccccc1Nc1ccc(SC(F)F)cc1)NCc1ccco1 was read as FPRL1 binder -5 and FPR ligand -10.
Cc1oc(-c2cccc(Cl)c2)nc1CN1CCC(C(=O)NCc2cccnc2)CC1 was read as FPRL1 binder -6 and FPR ligand -2.
For C=CCn1c(-c2ccc(OC)cc2)nc2ccccc21 the results were VCAM-1 up imaging inactive, VCAM-1 imaging inactive, FPRL1 binder -1, VCAM-1 inhibition inactive and FPR ligand -3.
CC1CCN(S(=O)(=O)c2ccc(S(=O)(=O)NCC(=O)C(C)(C)C)cc2)CC1 was read as VCAM-1 up imaging inactive, VCAM-1 imaging inactive, FPRL1 binder 3, VCAM-1 inhibition inactive and FPR ligand -4.
`O=C(Cn1cc2c(n1)CCCC2)NC1CCN(Cc2ccccc2)CC1` gave FPRL1 binder -4 and FPR ligand -5.

(further entries)
`COc1ccc(S(=O)(=O)NCC(=O)N(CC(=O)NCC2CCCO2)c2ccccc2C)cc1` (stereo unspecified) gave VCAM-1 up imaging inactive, VCAM-1 imaging inactive, FPRL1 binder -2, VCAM-1 inhibition inactive and FPR ligand 5.
`O=C(Cn1c2c(c(-c3ccccc3)cc1=O)CCCC2)N1CCCCCC1` gave FPRL1 binder -2 and FPR ligand 12.
CCOC(=O)N1CCN(S(=O)(=O)c2cccc3nsnc23)CC1 was read as FPRL1 binder -4 and FPR ligand -2.
`CC1Cc2ccccc2N1C(=O)CCS(=O)(=O)c1cccc2nonc12` (stereo unspecified) gave FPRL1 binder -6 and FPR ligand 13.
Screening COc1ccccc1CN(Cc1nc2ccccc2c(=O)[nH]1)C(=O)Nc1ccccc1 returned VCAM-1 up imaging inactive, VCAM-1 imaging 78%, FPRL1 binder 0, VCAM-1 inhibition inactive and FPR ligand -6.
`CCOc1ccc(NC2CCN(C(C)=O)CC2)cc1` gave FPRL1 binder 5 and FPR ligand -5.
O=C(O)CCc1ccc(-c2ccc(Br)cc2)o1 was read as FPRL1 binder -4 and FPR ligand -8.
Screening CCCCC(CC)Cn1c2nc3ccccc3nc2c2c(=N)oc(C)nc21 (stereo unspecified) returned VCAM-1 up imaging inactive, VCAM-1 imaging inactive, FPRL1 binder -9, VCAM-1 inhibition inactive and FPR ligand 6.
For CCN(CC)CCCN1C(=O)C(=O)/C(=C(/O)c2ccccc2)C1c1cc(OC)ccc1OC (stereo unspecified) the results were FPRL1 binder 2 and FPR ligand 1.
For CN1C(=O)CSc2ccc(NC(=O)NCCC3=CCCCC3)cc21 the results were FPRL1 binder 11 and FPR ligand 11.

Grouped by structure, the compounds so far with two or more sulfur atoms
CC1CCN(S(=O)(=O)c2ccc(S(=O)(=O)NCC(=O)C(C)(C)C)cc2)CC1 was read as VCAM-1 up imaging inactive, VCAM-1 imaging inactive, FPRL1 binder 3, VCAM-1 inhibition inactive and FPR ligand -4.
CCOC(=O)N1CCN(S(=O)(=O)c2cccc3nsnc23)CC1 was read as FPRL1 binder -4 and FPR ligand -2.

(more compounds)
`CCOC(=O)N1CCC(N2Cc3cccc(C(=O)O)c3C2=O)CC1` gave FPRL1 binder -2 and FPR ligand -1.
CC(C)N1C(=O)CCC1C(=O)NCCc1ccccc1 (stereo unspecified) was read as FPRL1 binder 0 and FPR ligand 4.
`CCOC(=O)C1CCCN(C(=O)Cn2ncc3c(=O)oc4ccc(C)cc4c32)C1` (stereo unspecified) gave FPRL1 binder -2 and FPR ligand -4.
COc1ccc(C2C(C(=O)N3CC(C)CC(C)C3)c3ccccc3C(=O)N2C)cc1 (stereo unspecified) was read as FPRL1 binder 3 and FPR ligand -2.
`CSc1nsc(SC)c1NC(=O)N1CCCC1` gave FPRL1 binder 12 and FPR ligand 8.
For CCC1CCCCN1CCCNC(=O)C1CCN(S(=O)(=O)N2CCCCC2)CC1 (stereo unspecified) the results were FPRL1 binder 3 and FPR ligand -8.
CCSc1nnc(NC(=O)CSc2nccn2-c2cccc(C)c2)s1 was read as FPRL1 binder -3 and FPR ligand 6.
`c1ccc(-c2nc(NC3CC3)nc(-n3ccnc3)n2)cc1` gave FPRL1 binder -2 and FPR ligand -6.
`CC(C)C(NC(=O)CN1C(=O)c2ccccc2S1(=O)=O)C(C)C` gave FPRL1 binder 2 and FPR ligand -4.
Screening CCOc1ccc(CCNC(=O)c2cc3sccc3n2C)cc1OCC returned FPRL1 binder -2 and FPR ligand 6.
`COc1ccc(-c2nc3c(c(=O)n(C)c(=O)n3C)n2CC2CC(c3ccccc3)=NO2)cc1OC` (stereo unspecified) gave VCAM-1 up imaging inactive, VCAM-1 imaging inactive, FPRL1 binder -4, VCAM-1 inhibition 73* and FPR ligand 0.
Screening Cc1nc2sc(C(c3ccc(Cl)cc3)N3CCN(C(=O)c4ccco4)CC3)c(O)n2n1 (stereo unspecified) returned FPRL1 binder -6 and FPR ligand -2.
For Cc1ccc(-c2nc3ncccn3c2NC(=O)C2CC2)cc1 the results were FPRL1 binder -4 and FPR ligand -9.
For CCN1CCN(c2ncc(C(=O)N3CCCc4ccccc43)c3ccccc23)CC1 the results were FPRL1 binder 3 and FPR ligand -2.
O=C(NCCN1CCOCC1)c1cc(-c2ccc(Cl)cc2)on1 was read as FPRL1 binder -1 and FPR ligand -2.
Screening COc1ccc(N2CCN(C(c3cccs3)C(C)NC(=O)c3ccco3)CC2)cc1 (stereo unspecified) returned VCAM-1 up imaging inactive, VCAM-1 imaging inactive, FPRL1 binder -3, VCAM-1 inhibition inactive and FPR ligand -5.
`O=C(C1CCC1)N1CCc2cc(S(=O)(=O)N3CCc4ccccc4C3)ccc21` gave VCAM-1 up imaging inactive, VCAM-1 imaging inactive, FPRL1 binder -3, VCAM-1 inhibition inactive and FPR ligand -4.
`Cc1[nH]n2c(=O)c3c(nc2c1-c1ccccc1)CCCC3` gave FPRL1 binder 0 and FPR ligand 11.
`Cc1cccc(N2CCN(C(=O)Cn3cccc3)CC2)c1C` gave FPRL1 binder -6 and FPR ligand -8.
O=S(=O)(NCc1ccccc1)c1cnc[nH]1 was read as FPRL1 binder 0 and FPR ligand 3.
N#Cc1c[nH]n2c(=O)cc(Cc3ccccc3)nc12 was read as FPRL1 binder -4 and FPR ligand 0.
Screening O=S(=O)(NCC(c1cccnc1)N1CCN(c2ccccc2)CC1)c1cccs1 (stereo unspecified) returned FPRL1 binder 8 and FPR ligand -1.
For Cc1[nH]n2c(=O)c3c(nc2c1-c1ccc(Cl)cc1)CCC3 the results were FPRL1 binder 0 and FPR ligand 51*.
Screening O=C(c1ccco1)N1CCN(C(=O)c2ccc(COc3ccc(F)cc3)o2)CC1 returned FPRL1 binder -14 and FPR ligand 2.
For O=C(c1cc(C2CC2)on1)N1CCOCC1 the results were FPRL1 binder 9 and FPR ligand -4.
`O=C(O)CC(CNS(=O)(=O)c1ccccc1)c1ccccc1` (stereo unspecified) gave FPRL1 binder -9 and FPR ligand 8.
For CCN(CC)CCOc1cccc(C(C)C)c1 the results were VCAM-1 up imaging inactive, VCAM-1 imaging inactive, FPRL1 binder 0, VCAM-1 inhibition inactive and FPR ligand 1.
`COc1ccc(Cl)cc1NC(=O)c1ocnc1C` gave FPRL1 binder -4 and FPR ligand 4.
`CCOC(=O)c1cccc(NC(=O)CSc2nnc(-c3ccoc3C)n2CCOC)c1` gave VCAM-1 up imaging inactive, VCAM-1 imaging inactive, FPRL1 binder 4, VCAM-1 inhibition inactive and FPR ligand 14.
Screening Cc1ccc(N(C(C)C(=O)Nc2ccc(S(=O)(=O)N3CCOCC3)cc2)S(C)(=O)=O)cc1 (stereo unspecified) returned VCAM-1 up imaging inactive, VCAM-1 imaging inactive, FPRL1 binder 3, VCAM-1 inhibition inactive and FPR ligand 0.
`COc1ccc(NC(=O)N(CCC(C)C)C(C)c2ccccn2)c(OC)c1` (stereo unspecified) gave FPRL1 binder 1 and FPR ligand 7.
CCOC(=O)CNC(=O)CSc1nnc(Cn2c(=O)sc3ccccc32)n1-c1ccccc1C was read as FPRL1 binder 0 and FPR ligand -1.
CC(=O)N(CC(=O)Nc1nn(-c2ccccc2)nc1C(N)=O)Cc1ccccc1 was read as FPRL1 binder -1 and FPR ligand 1.
For CC1CCN(S(=O)(=O)c2ccc(NC(=O)CSc3nnnn3C)cc2)CC1 the results were VCAM-1 up imaging inactive, VCAM-1 imaging inactive, FPRL1 binder -3, VCAM-1 inhibition inactive and FPR ligand -2.
Screening Cc1nnc(NC(=O)CCC(=O)N2CCC(C)CC2)s1 returned VCAM-1 up imaging inactive, VCAM-1 imaging inactive, FPRL1 binder 1, VCAM-1 inhibition inactive and FPR ligand -2.
Screening CCOC(=O)Cc1c(C)nc2c(-c3ccc(Cl)cc3)c[nH]n2c1=O returned FPRL1 binder -9 and FPR ligand -4.
For O=C(O)C1CCC(=O)N1C1CCCC1 (stereo unspecified) the results were FPRL1 binder 3 and FPR ligand 4.

Only part of the results is shown; the hit share may differ from the screen's.
